Bioassay records: PubChem BioAssay, National Center for Advancing Translational Sciences (NCATS)
CtBP-E1A blk = qHTS Assay for Inhibitors of the CtBP/E1A Interaction; CtBP / adenovirus E1A interaction (AlphaScreen); AlphaScreen GST-E1A/His-CtBP binding, 1536-well; hits give low values; control for the full effect not named in the record; activity change, % (no concentration beside the values); 340,000 compounds, 0.49% hits; AID 651724, 2012; in the data active means activity change below about -65%; inconclusive means about -30% to -65%; inactive means above about -30%; also: % is scaled to controls: 0 for no effect and ±100 for the full control effect
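GST-E1A and His-tagged CtBP (125 nM each as 5X stock) were preincubated with pin-transferred compound for 2 h at 37 °C in the dark, then glutathione donor and nickel acceptor beads were added for 1 h before AlphaScreen reading.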
PINK1 modulator = A Quantitative High throughput Screen to Identify Chemical Modulators of PINK1 Expression; PINK1 immunofluorescence, high-content cytometry, 24 h; Potency, µM (top dose mostly 76.6 µM), for inactives: top-dose activation (PINK1 increase), most hits filed as activators; 410,000 compounds, 0.2% hits; active = well fitted activation curve with a large enough effect; inconclusive = small, poorly fitted or top-dose-only effect; inactive = flat fitted curve, though single readings scatter; cell line not stated here;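 also: potency is read from the fitted curve at half-maximal effect; % of control where 0% means no effect; nearly all actives have a fitted effect of over 65% in size; a mitochondrial uncoupler was the plate control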
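PINK1 protein, normally rapidly degraded, was detected by immunofluorescence after 24 hour compound treatment of a stable cell line. Titration data (5 concentrations) came from laser-scanning cytometry, with CCCP-treated wells as controls.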
D2 agonist = Beta-Arrestin HTS for Positive Allosteric Modulators of the Human D2 Dopamine Receptor: Agonists | D(2) dopamine receptor (Homo sapiens), P14416 | DiscoveRx PathHunter D2 beta-arrestin, luminescence, 90 min; 100% = 57 uM dopamine signal | activation, % (test concentration not listed) | 360,000 compounds, 0.084% hits; in the data active = activation above about 40%; inconclusive = about 15% to 40%; inactive = below about 15%; also: compound concentration not given in the record; the text of the record calls up to 30% inactive
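DiscoveRx PathHunter D2 beta-arrestin cells (2,100/well) attached overnight, then compound-stimulated 90 min at 37 C in HBSS/10 mM HEPES/0.1% Tween-20 buffer; beta-galactosidase complementation read by luminescence after 1 h at ambient temperature. Dopamine 57 uM final (EC100) as control.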
Six1-Eya2 blk = qHTS Assay for Inhibitors of the Six1/Eya2 Interaction; AlphaScreen GST-Six1/His-Eya2 binding, biochemical; hits give low values; control for the full effect not named in the record; activity change, % (no concentration beside the values); 360,000 compounds, 0.56% hits; AID 651725, 2012; in the data active = activity change below about -65%; inconclusive = about -30% to -65%; inactive = above about -30%; also: % is scaled to controls: 0 for no effect and ±100 for the full control effect
Target sequence (O00167 whole entry, looked up): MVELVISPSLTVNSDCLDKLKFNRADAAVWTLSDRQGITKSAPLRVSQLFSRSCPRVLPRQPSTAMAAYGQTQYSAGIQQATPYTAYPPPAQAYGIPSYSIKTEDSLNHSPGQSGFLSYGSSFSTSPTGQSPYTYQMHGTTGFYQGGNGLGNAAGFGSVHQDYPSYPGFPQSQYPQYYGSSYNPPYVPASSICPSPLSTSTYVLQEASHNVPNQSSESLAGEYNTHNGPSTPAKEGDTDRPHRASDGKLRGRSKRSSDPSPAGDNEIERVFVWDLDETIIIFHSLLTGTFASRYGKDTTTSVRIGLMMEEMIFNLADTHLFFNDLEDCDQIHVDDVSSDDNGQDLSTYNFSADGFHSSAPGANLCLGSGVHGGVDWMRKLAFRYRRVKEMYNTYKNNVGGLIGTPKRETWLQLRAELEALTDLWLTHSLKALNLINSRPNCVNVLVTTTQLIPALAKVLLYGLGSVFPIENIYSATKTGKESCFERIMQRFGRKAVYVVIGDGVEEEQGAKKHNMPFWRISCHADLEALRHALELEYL
Target sequence (Q15475 whole entry, looked up): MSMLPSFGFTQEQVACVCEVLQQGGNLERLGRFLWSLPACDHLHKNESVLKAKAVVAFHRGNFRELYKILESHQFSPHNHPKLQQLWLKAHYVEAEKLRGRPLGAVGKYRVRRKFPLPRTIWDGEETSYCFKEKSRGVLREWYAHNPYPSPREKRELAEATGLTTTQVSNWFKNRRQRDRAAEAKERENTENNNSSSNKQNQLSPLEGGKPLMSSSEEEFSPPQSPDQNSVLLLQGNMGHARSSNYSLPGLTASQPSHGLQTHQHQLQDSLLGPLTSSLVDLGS
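AlphaScreen with GST-Six1 and His-Eya2 (5X mix: 250 nM and 500 nM), glutathione donor and nickel acceptor beads; buffer 50 mM Tris pH 8.0, 300 mM NaCl, 1 mM TCEP; 1 h at 37 C in the dark.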
TRPML1 agonist = qHTS for Agonists of the Human Mucolipin Transient Receptor Potential 1 (TRPML1) | TRPML1-expressing cells, Ca2+ dye fluorescence, FDSS; host cell line not named in the record; reference of the full effect not given here | activation, % (no concentration beside the values) | 410,000 compounds, 0.12% hits; in the data active = activation above about 50%; inconclusive = about 30% to 50%; inactive = below about 30%; also: 0% is about no effect; the text of the record puts the active cut at 80%
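Tet-induced TRPML1-DL cells, 1,500 per well, cultured overnight, were loaded with a no-wash Ca2+ dye for 45–90 min. Calcium fluorescence was recorded on the FDSS for 110 s after compound addition, before the EC80 agonist (4 uM 54-4) was added.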
TRPML1 blocker = qHTS for Inhibitors of the Human Mucolipin Transient Receptor Potential 1 (TRPML1); Mucolipin-1 (Homo sapiens), Q9GZU1; TRPML1-inducible cells, Ca2+ dye fluorescence, FDSS; hits give low values; inhibition of EC80 agonist-evoked calcium signal; activity change, negative = inhibition, % (test concentration not listed); 390,000 compounds, 0.02% hits; in the data active means activity change below about -50%; inconclusive means about -30% to -50%; inactive means above about -30%;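 also: stimulus is agonist 54-4 at its EC80 concentration; % is scaled to controls: 0 for no effect and ±100 for the full control effect; compound concentration not given in the record; the text of the record puts the active cut at -80%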
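TRPML1-DL cells, Tet-induced overnight (~16 h, 37 °C) at 1,500 cells/well, were loaded with Ca8 no-wash dye plus quencher for 45-90 min at room temperature. Compounds were pinned during FDSS kinetic reading; agonist 54-4 at EC80 (4 uM final) then added.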
* marks the source's active call; other numbers are inactive results; ? = inconclusive; nt = not tested or not shown; & = joins results of further samples; [ ] = remark or other dose.

SMILES | CtBP-E1A blk | PINK1 modulator | D2 agonist | Six1-Eya2 blk | TRPML1 agonist | TRPML1 blocker
F[B-](F)(F)COCc1ccccc1Br | -1 | -0.2% | -0.1 | -1 | 0.1 | 3
O=C(COc1ccc(Cl)cc1Cl)N/N=C/c1ccc[nH]1 | nt | 2.0% | 2.7 | -14 | 0.5 | 15
O=C(CCNS(=O)(=O)c1ccccc1Cl)N1CCN(c2ccccn2)CC1 | 18 | -0.8% | 1.5 | 1 | -0.5 | 1
CN1C(=S)SC(/[N+]([O-])=C\c2ccccc2)C1(C)C (centres undefined) | 0 | -0.3% | -3.5 | 5 | 2.6 | -3
C(=N\Nc1nc2ccccc2[nH]1)/c1ccc2c(c1)OCO2 | -5 | -1.2% | 0.8 | -13 | 0.9 | -4
CCCCN(CC)c1ncnc2c1sc1nc(N3CCOCC3)c3c(c12)CCCC3 | nt | 2.9% | nt | nt | -0.8 | 6
CCn1c2ccccc2c2cc(NC(=O)CN(C)CC(=O)Nc3ccc(N4CCOCC4)cc3)ccc21 | 0 | 1.7% | -0.2 | ? | 2.0 | 15
Cn1c(=O)c2c(nc(N/N=C/c3cccs3)n2C)n(C)c1=O | -27 | 0.9% | 2.0 | -21 | -0.2 | 1
Cc1csc(SCC(=O)c2ccc(S(=O)(=O)N3CCOCC3)cc2)n1 | -4 | -1.9% | -1.3 | 2 | 0.4 | -4
CC1(C)O[C@@H](CC(=O)O)[C@]23CO[C@H](C(=O)[C@]4(C)C2CC[C@@]2(C)[C@H](c5ccoc5)OC(=O)C5O[C@]524)[C@@H]13 (some centres undefined) | -2 | 0.1% | -0.8 | 3 | -0.6 | 26
Cc1cccc(Cn2c(COc3ccc(Cl)cc3)nc3ccccc32)c1 | nt | 19% | nt | nt | 4.0 | 35
O=C(O)CCC(=O)NC1CCCCCCC1 | -3 | 0.5% | -1.5 | -5 | 0.0 | 4
Cc1cc(-c2n[nH]c(=S)n2/N=C/C(Br)=C/c2ccccc2)n[nH]1 | 0 | -2.0% | -1.6 | -2 | 1.0 | -11
CCOCC(=O)Nc1cc(C(=O)Nc2ccccc2)ccc1Cl | 10 | nt | 3.7 | 4 | -0.3 | 4
Cc1ccc(C(=O)NCCC2=CCCCC2)cc1S(=O)(=O)N1CCOCC1 | -1 | -0.4% | -4.9 | -1 | -0.1 | 0
COc1cccc(C2N(c3ccc(Cl)cc3)C(=O)C3CCCN32)c1 (centres undefined) | -8 | -0.7% | -2.1 | 9 | 0.3 | 13
O=C(NCc1ccccn1)c1cccc(NS(=O)(=O)c2ccccc2)c1 | 4 | 1.2% | -2.0 | -1 | -0.4 | 19
Cc1cccc(C)c1C(O)c1ncc(-c2cccc(C(F)(F)F)c2)[nH]1 (centres undefined) | 0 | 5.7% | -3.6 | -7 | 1.1 | nt
COC(=O)COc1cccc(NC(=O)C(c2ccccc2)c2ccccc2)c1 | 6 | 2.6% | 1.0 | -1 | 0.6 | -7
O=C(Nc1ccccc1)Nc1ccccc1C(=O)NCc1ccco1 | 0 | nt | -0.8 | -1 | -0.2 | 1
Cc1ccc(S(=O)(=O)C(CNC(=O)c2ccccc2F)c2cccs2)cc1 (centres undefined) | nt | 0.8% | nt | nt | -0.6 | 12
CC(C)OCCCNC(=O)c1ccc(CS(=O)(=O)c2cccc(C(F)(F)F)c2)o1 | 0 | -0.3% | 3.0 | -5 | 0.7 | -22
CCOc1ccccc1N(CC(=O)Nc1ccccc1Br)S(=O)(=O)c1ccccc1 | 10 | 11% | -0.9 | -3 | 2.6 | 26
Cn1cnc2c1c(=O)n(Cc1ccc(F)cc1Cl)c(=O)n2C | -2 | -0.4% | -2.9 | 3 | 0.9 | 4
CN(C)c1ccc(NC(=O)Nc2nnc([C@H]3C[C@H](O)[C@@H](CO)O3)s2)cc1 | -5 | -0.5% | 9.3 | -10 | -0.3 | nt
Cc1ccc(N2C(=O)CC(NNC(=O)Cc3ccc(F)cc3)C2=O)cc1Cl (centres undefined) | nt | 0.1% | -4.8 | -1 | -0.3 | -8
Brc1cc2c(cc1COc1ccc(-c3nn[nH]n3)cc1)OCO2 | 3 | -1.4% | -2.3 | -13 | 0.2 | 47
O=C(NC(=S)NCc1ccc(F)cc1)c1ccccc1 | -5 | 0.7% | -1.7 | 1 | 1.6 | 2
O=C(COc1ccc(Br)cc1)NNC(=S)NCc1ccccc1 | -5 | 1.0% | -5.8 | -2 | 1.3 | -3
CSCC[C@H](NC(=O)C1CCN(C(=O)[C@H](Cc2ccccc2)NS(=O)(=O)c2ccc(C)cc2)CC1)C(=O)O | 8 | 3.4% | -3.7 | 0 | -0.5 | -8
CC(C)c1ccc(C2(C)NC(=O)N(CC(=O)N3CCN(C(=O)c4cccs4)CC3)C2=O)cc1 (centres undefined) | -14 | 0.6% | -2.3 | 2 | 3.7 | -7
CCC(C)(C)NC(=O)CN(Cc1ccc(F)cc1)C(=O)CCC(=O)Nc1ccccn1 | 1 | 3.2% | -3.1 | 0 | -0.5 | 33
COc1ccc(-c2nsc(NC(=O)c3oc4cc(C)c(C)cc4c3C)n2)cc1 | nt | -0.3% | nt | nt | 1.5 | 6
Cc1ccc(CC(=O)Nc2ccc3c(c2)N(C)C(=O)c2ccccc2S3)cc1 | nt | 0.4% | nt | nt | 0.9 | 0
CCNC(=O)C(=O)NCC1OCCCN1S(=O)(=O)c1ccc(F)cc1C (centres undefined) | -4 | -0.5% | -4.2 | 4 | 0.0 | -13
O=C(Nc1cccc(S(=O)(=O)N2CCOCC2)c1)c1ccc(Cl)nc1 | nt | 13% | 6.0 | ? | -0.8 | 1
COc1ccccc1OCc1cc(C(=O)N(C)CCC2CCCCO2)no1 (centres undefined) | 3 | -1.0% | -1.7 | 32 | 0.6 | -9
Cc1nnc2n(c1=O)C(CS(=O)(=O)c1ccccc1)CS2 (centres undefined) | 1 | 2.0% | -1.9 | -2 | -0.3 | 2
O=c1cc(O)c2c(=O)n(-c3ccccc3)c3ccccc3c2o1 | 2 | 6.1% | -0.3 | 1 | -0.1 | 34
CC1CN(C(=S)Nc2cccc([N+](=O)[O-])c2)CC(C)O1 (centres undefined) | 9 | 0.9% | -1.3 | 2 | 0.0 | -3

5 of the entries above in order of their number in D2 agonist, lowest first.
canonical_smiles,D2 agonist
O=C(COc1ccc(Br)cc1)NNC(=S)NCc1ccccc1,-5.8
CCNC(=O)C(=O)NCC1OCCCN1S(=O)(=O)c1ccc(F)cc1C (centres undefined),-4.2
CC(C)c1ccc(C2(C)NC(=O)N(CC(=O)N3CCN(C(=O)c4cccs4)CC3)C2=O)cc1 (centres undefined),-2.3
Cc1nnc2n(c1=O)C(CS(=O)(=O)c1ccccc1)CS2 (centres undefined),-1.9
CN(C)c1ccc(NC(=O)Nc2nnc([C@H]3C[C@H](O)[C@@H](CO)O3)s2)cc1,9.3

(next part)
SMILES | CtBP-E1A blk | PINK1 modulator | D2 agonist | Six1-Eya2 blk | TRPML1 agonist | TRPML1 blocker
O=C(NNC(=O)C12CC3CC(CC(C3)C1)C2)c1cnccn1 | 1 | 0.1% | -7.6 | -4 | -1.0 | -4
COC1(OC)N=C(N)C2(C#N)C(c3ccc(C)cc3)C12C#N (centres undefined) | -3 | -0.6% | -2.2 | 8 | -0.5 | 0
COC(=O)c1ccc(C2c3c(oc4ccc(C)cc4c3=O)C(=O)N2Cc2ccc3c(c2)OCO3)cc1 (centres undefined) | nt | 0.8% | nt | nt | 1.2 | 28
O=C(O)C1CCC(Cn2c(SCc3cc(=O)n4cc(Br)ccc4n3)nc3ccsc3c2=O)CC1 (centres undefined) | 0 | 0.7% | 3.8 | -6 | 0.3 | -13
O=C(N/N=C/c1ccc(N2CCCC2)c([N+](=O)[O-])c1)c1cccnc1 | -10 | 0.0% | -0.8 | -4 | -0.7 | 7
CC1CCCC(C)N1CCNC(=O)Cn1nc(-c2ccccc2)ccc1=O (centres undefined) | 2 | -2.6%[38.3 µM] | -2.5 | 5 | -0.1 | -1
O=C(COC(=O)CCOc1ccccc1)Nc1ncc(Cl)cc1Cl | 14 | 4.0% | -2.0 | -1 | -0.7 | -6
O=C(OC1CCCCC1)c1ccc(NC(=O)C2CCCCC2)cc1 | 7 | 11% | -1.1 | 15 | -0.4 | -6
O=[N+]([O-])c1cc(Cl)c(O)c2ncccc12 | -91* | 4.6% | -3.3 | -80* | -0.3 | 11
COC(=O)c1ccc(C2/C(=C(\O)c3cccc(OC)c3)C(=O)C(=O)N2CCCN2CCOCC2)cc1 (centres undefined) | 11 | 0.1% | 1.4 | 3 | 0.4 | 8
O=C(CSCc1ccc(F)cc1)N1CCc2c([nH]c3ccccc23)C1c1ccc(Cl)cc1 (centres undefined) | nt | 1.7% | nt | nt | -0.1 | 42
COCc1cc(C)n(CC(=O)Nc2ccc3c(c2)OCO3)c(=O)c1C#N | 3 | -1.2% | -3.8 | 18 | -0.1 | -4
O=C(CSc1nc(Nc2ccccc2)nc(N2CCOCC2)n1)N1CCc2ccccc21 | 5 | 5.4% | -2.0 | 3 | -1.7 | -5
Cn1ccc(C(=O)Nc2sc3c(c2C#N)CCC3)n1 | 2 | -0.3% | -0.4 | -7 | -0.8 | 3
Cc1ccc(NS(=O)(=O)c2ccc3c(c2)n(C)c(=O)n3C)c(C)c1 | 1 | 0.4%&-0.5% | -4.7 | -9 | 0.1 | -12
CN1CCN(CCNC(=O)c2cnn(-c3ccc(Cl)cc3)c2C2CCN(C(=O)OC(C)(C)C)CC2)CC1 | nt | -1.2% | nt | nt | 0.2 | 17
CCOC(=O)N1CCN(S(=O)(=O)c2cc(OCC(N)=O)c(C)cc2Cl)CC1 | 5 | -2.2% | -1.8 | 15 | -0.5 | -7
CCN(CC)C(=O)Cn1c(=O)n(CCc2ccccc2)c(=O)c2ccccc21 | nt | 0.2% | nt | nt | -0.4 | -3
O=C(COC(=O)C1CCN(C(=O)c2ccc(Cl)cc2)CC1)c1ccco1 | 0 | -3.6% | -2.5 | 22 | -0.5 | 0
CCOc1ccc(CCNC(=O)c2sc3ncccc3c2-n2c(C)ccc2C)cc1 | nt | 3.1% | nt | nt | 1.9 | -26

Random excerpt: 2 records from the list
SMILES | CtBP-E1A blk | PINK1 modulator | D2 agonist | Six1-Eya2 blk | TRPML1 agonist | TRPML1 blocker
COC1(OC)N=C(N)C2(C#N)C(c3ccc(C)cc3)C12C#N (centres undefined) | -3 | -0.6% | -2.2 | 8 | -0.5 | 0
Cn1ccc(C(=O)Nc2sc3c(c2C#N)CCC3)n1 | 2 | -0.3% | -0.4 | -7 | -0.8 | 3

Compounds as they come; about 1% have a hit in one of these screens.
